# Screens deposited in PubChem by National Center for Advancing Translational Sciences (NCATS).
# RE007 growth inh: qHTS Assay for Inhibitors of the HIV-1 protein Vpr | Potency, µM (doses to about 92.2 µM), inactives show top-dose activity change, negative = less growth | 360,000 tested, 0.21% active | S. pombe RE007 Vpr strain, BacTiter-Glo ATP luminescence, 24 h; control for the full effect not named in the record; active = well fitted falling curve with a large enough effect; inconclusive = small, poorly fitted or top-dose-only effect; inactive = no such curve, though single readings can be large or run the other way;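 further: on the % scale 0 is the no-effect control and ±100 the full control effect; nearly all actives have a fitted effect of over 50% in size; the assay follows cell death caused by Vpr and the record does not say whether a fall means rescue or toxicity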
#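 Fission yeast RE007 carrying one integrated HIV-1 vpr copy, seeded at OD 0.01 in PMG+AL medium with 23 nL pinned compound. Grown 24 h at 30 degrees; viability read by BacTiter-Glo luminescence after 5 min.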
# SARS PLpro yeast: qHTS of Yeast-based Assay for SARS-CoV PLP; 330,000 tested, 0.19% active; S. cerevisiae expressing SARS-CoV PLpro, growth rescue; control for the full effect not named in the record; Potency, µM (doses to about 32.9 µM), for the others: at the highest dose activity, positive = growth rescue; AID 485353, 2010; active means well fitted rising curve with a large enough effect; inconclusive means small, poorly fitted or top-dose-only effect; inactive means no such curve, though single readings can be large or run the other way; further: 0% is about no effect; nearly all actives have a fitted effect of over 55% in size; growth read by luminescence after 48 h
# Marburg entry inh: qHTS for inhibitors of binding or entry into cells for Marburg Virus; 300,000 tested, 1.8% active; Potency, µM (highest dose often 37.8 µM), inactives show at the top dose activity change, negative = inhibition, most hits filed as inhibitors; Marburg virus pseudotyped entry inhibition, cell reporter; control for the full effect not named in the record; about a third of the inactives were read at about 46 µM; active = well fitted inhibition curve with a large enough effect; inconclusive = small, poorly fitted or top-dose-only effect, or effect the other way; inactive = flat fitted curve, though single readings scatter; tested in HEK293 cells; about a fifth of its hits are not listed in these tables; further: on the % scale 0 is the no-effect control and ±100 the full control effect; luciferase read-out
# Cruzain inh Det: qHTS Assay for Promiscuous and Specific Inhibitors of Cruzain (with detergent) | Cruzipain (Trypanosoma cruzi), P25779 | purified cruzain, Z-FR-AMC fluorescence, 0.01% Triton | Potency, µM, for inactives: max response, negative = inhibition, actives largely listed as inhibitors | 200,000 tested, 0.43% active | AID 1478, 2009;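 further: plate controls were neutral wells for no effect and buffer without enzyme for full effect; nearly all actives have a fitted effect of over 40% in size; top concentration of the series not given in the record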
# Target sequence (P25779 123-467 limits assumed): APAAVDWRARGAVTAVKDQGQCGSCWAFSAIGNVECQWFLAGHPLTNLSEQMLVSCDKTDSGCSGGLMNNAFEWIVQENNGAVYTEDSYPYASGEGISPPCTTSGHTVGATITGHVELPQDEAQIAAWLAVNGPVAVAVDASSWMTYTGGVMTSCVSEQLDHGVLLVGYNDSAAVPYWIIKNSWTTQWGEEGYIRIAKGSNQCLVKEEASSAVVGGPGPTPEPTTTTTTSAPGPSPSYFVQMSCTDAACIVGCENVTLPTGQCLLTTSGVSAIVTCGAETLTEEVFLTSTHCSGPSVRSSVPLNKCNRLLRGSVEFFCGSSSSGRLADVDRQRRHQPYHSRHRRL
#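 Sodium acetate buffer (100 mM, pH 5.5) containing 5 mM DTT and 0.01% Triton X-100 hosted 1.5 nM cruzain and test compound for 15 min at room temperature. Cleavage of 2 uM Z-FR-AMC was then tracked by fluorescence.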
# Lassa entry inh: qHTS for Inhibitors of binding or entry into cells for Lassa Virus; Potency, µM (titrated, usually from 37.9 µM), for the others: at the top dose activity change, negative = inhibition, hits mostly inhibitors; 300,000 tested, 1.2% active; Lassa virus pseudotype entry inhibition, cell reporter; control for the full effect not named in the record; active means well fitted inhibition curve with a large enough effect; inconclusive means small, poorly fitted or top-dose-only effect, or effect the other way; inactive means flat fitted curve, though single readings scatter; tested in HEK293 cells; further: on the % scale 0 is the no-effect control and ±100 the full control effect; nearly all actives have a fitted effect of over 50% in size; luciferase read-out
# NS1 inh: qHTS Assay for Inhibitors of Influenza NS1 Protein Function; S. cerevisiae slowed by influenza A NS1, growth recovery by OD600; Potency, µM (highest dose often 46.1 µM), for inactives: top-dose activity, positive = more growth; 270,000 tested, 0.4% active; active means well fitted rising curve with a large enough effect; inconclusive means small, poorly fitted or top-dose-only effect; inactive means no such curve, though single readings can be large or run the other way; further: nearly all actives have a fitted effect of over 50% in size
#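 OD600 was taken as the measure of yeast growth restored by compound in an NS1-expressing S. cerevisiae strain. Cells had been washed out of glucose medium and diluted 1:100 into galactose -URA medium, pH 6.0.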
# StopGo reporter: High Throughput Screening for Foot and Mouth Disease Virus Antivirals. human cells with a luciferase reporter of 2A StopGo recoding; control for the full effect not named in the record. 410,000 tested, 1.2% active. AID 1159524, 2015. Potency, µM (series often up to 57.9 µM), without a hit: at the highest dose signal change, negative = less light; active = well fitted falling curve with a large enough effect; inconclusive = small, poorly fitted or top-dose-only effect; inactive = no such curve, though single readings can be large or run the other way; tested in HEK293T cells; further: on the % scale 0 is the no-effect control and ±100 the full control effect; nearly all actives have a fitted effect of over 45% in size; luciferase light after 4 h
# Cruzain noTriton: qHTS Assay for Promiscuous and Specific Inhibitors of Cruzain (without detergent) | purified cruzain, Z-FR-AMC fluorescence, no detergent | Cruzipain (Trypanosoma cruzi), P25779 | Potency, µM, for the others: max response, negative = inhibition, hits mostly inhibitors | 200,000 tested, 2.3% active | AID 1476, 2009;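 further: plate controls were enzyme without inhibitor for no effect and buffer without enzyme for full effect; nearly all actives have a fitted effect of over 40% in size; top concentration of the series not given in the record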
#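 Detergent-free condition (0.00005% Triton X-100) in acetate buffer pH 5.5 with DTT. 1.5 nM enzyme and compound were pre-mixed 15 min, then 2 uM Z-FR-AMC substrate added; reaction progress from fluorescence change between first and third reads (60 s).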
# Starred values were filed as active, the others as inactive; ? = inconclusive; . = not tested or not shown; & = joins results of further samples; [ ] = remark or other dose. Unless noted, the call rests on the fitted dose curve; in most records, active means well fitted curve in the direction sought with a large enough effect; inconclusive means small, poorly fitted or top-dose-only effect, or another doubt; inactive means no such curve, though single readings can be large; an effect the other way counts as inactive or inconclusive. Potency means the concentration at half of the fitted maximal effect.
# Preview:
SMILES,RE007 growth inh,SARS PLpro yeast,Marburg entry inh,Cruzain inh Det,Lassa entry inh,NS1 inh,StopGo reporter,Cruzain noTriton
Cc1cc2c(cc1S(=O)(=O)NCc1ccc(N(C)C)cc1)OCC(=O)N2,8%,1%,.,-9.1%,-22%[46.1 µM],-23%,-20%&45%,11%
COc1ccc(C2N=C(c3ccccc3)C(C)(C)N2O)cc1 (centres undefined),-16%,7%,-7%,4.0%,20%,-11%,-10%,2%

# The listing, from the first entry:
SMILES,RE007 growth inh,SARS PLpro yeast,Marburg entry inh,Cruzain inh Det,Lassa entry inh,NS1 inh,StopGo reporter,Cruzain noTriton
Cc1cc2c(cc1S(=O)(=O)NCc1ccc(N(C)C)cc1)OCC(=O)N2,8%,1%,.,-9.1%,-22%[46.1 µM],-23%,-20%&45%,11%
COc1ccc(C2N=C(c3ccccc3)C(C)(C)N2O)cc1 (centres undefined),-16%,7%,-7%,4.0%,20%,-11%,-10%,2%
O=C(O)c1cc(-c2ccc(Cl)cc2)n(-c2cccc(Cl)c2)n1,12%,1%,1%[46.1 µM],.,-15%,0%,-15%,.
O=c1[nH]c(=S)n(-c2ccc(F)cc2)c(O)c1/C=N/N1CCOCC1,-1%,0%,.,.,.,-3%,-20%,.
O=[N+]([O-])c1ccc2c(c1)c(-c1ccccc1)nc1nncn12,24%,3%,?,.,0%,1%,-11%,.
O=C(Nn1cnnc1)c1ccc(Cl)cc1[N+](=O)[O-],17%,0%,.,.,.,1%,-10%,.
O=C(CN1CCN(Cc2cccc(Cl)c2)C1=O)N1CCC2(CC1)OCCO2,10%,0%,1%,3.4%,1%,-2%,-9%,6%
c1nnn(C23CC4CC(CC(C4)C2)C3)n1,0%,-5%,26%,1.6%,10%,9%,-2%,-4%
O=C(c1ccco1)N1CCN=C1SCc1cccc(Cl)c1,-11%,-2%,.,-3.3%,.,-57%,-25%,-22%
CC1=NNC(=O)C1CCC(=O)N/N=C/c1ccc(Cl)cc1 (centres undefined),6%,3%,25%[46.1 µM],.,11%[46.1 µM],4%,5%,.
O=C(CCn1c(=O)c2cccn2c2cccnc21)NCc1ccccc1Br,.,.,.,-0.5%,1%[46.1 µM],.,-1%,8%
CC(Oc1cc2oc(=O)c3c(c2cc1Cl)CCC3)C(=O)NCCCN1CCCC1=O (centres undefined),-11%,1%,.,.,.,9%,0%,.
O=C(c1ccc(CN2CCOCC2)cc1)N1CCN(c2ccccc2F)CC1,1%,0%,0%,4.0%,18%,0%,0%,-4%
O=[N+]([O-])c1ccccc1N=Nc1c(O)[nH]c2ccc(F)cc12,3%,.,?,.,?,.,19%,.
O=C(NCc1cccnc1)c1ccccc1NS(=O)(=O)c1ccc(F)cc1,-3%,0%,7%,.,8%,-6%,-16%,.
O=C(Oc1cccc(N2C(=O)CCC2=O)c1)c1ccccc1,16%,1%,1%,-0.9%,0%,.,3%,-6%
O=C(c1ccc(S(=O)(=O)N2CCCC2)cc1)N(c1ccc(F)cc1)C1C=CS(=O)(=O)C1 (centres undefined),-3%,-5%,-1%,.,?,-5%,-11%,.
Cc1ccc2nc(NNC(=O)c3ccc(S(=O)(=O)N4CCc5ccccc5C4)cc3)sc2c1,3%,5µM*,?,3.9%,?,10µM*,?,25µM*
COc1ccc(NC(=O)COc2cccc3c2CCN(Cc2cccnc2)C3=O)cc1,-7%,-5%,10%,.,2%,0%,-18%,.
CN(c1ccccc1)S(=O)(=O)c1ccc(C(=O)NCc2ccco2)cc1,-9%,10%,2%,.,?,.,-26%,.
CC(C)(C)C(=O)NC(=S)N1CCCC1,26%,-2%,0%,0.2%,-3%,2%,-4%,2%
CC(C)(C)c1ccc(CSc2nnc(-c3ccccc3NC(=O)c3ccccc3)o2)cc1,2%,4%,-14%,-4.5%,-4%,0%,0%,?
CCCCOc1ccc(CNC(=O)Cn2ncn3c(cc4cc(F)ccc43)c2=O)cc1,.,.,15%[46.1 µM],0.8%,.,.,-17%,-8%
O=C(COC(=O)c1ccccc1Br)NCCN1C(=O)CSC1=O,8%,-6%,-5%[46.1 µM],.,.,.,32%[activator],.
Cc1ccc(CNC(=O)CSc2c3c(nc4cc(Cl)ccc24)CCCC3)cc1,.,.,8%[46.1 µM],-2.6%,0%[46.1 µM],.,?,-5%
COc1cc(OC)cc(C(=O)Nn2cc(C(=O)Nc3ccc(F)cc3F)c3ccccc3c2=O)c1,-9%,10%,-18%,-3.3%,-23%,-11%,?,5%
Cc1noc(N)c1C1(O)C(=O)N(C(C)C)c2ccccc21 (centres undefined),-2%,-3%,0%[46.1 µM],.,0%[46.1 µM],.,8%,.
O=C(N/N=C\C=C\c1ccc2c(c1)OCO2)C1COc2ccccc2O1 (centres undefined),-26%,-6%,1%,-12%,-22%,-29%,19%,?
CN1CCCC1C(O)(c1ccccc1)c1ccccc1 (centres undefined),-8%,.,-24%,.,29%[14.3 µM],.,-9%,.
CCC(=O)N1CCc2cc(S(=O)(=O)CCC(=O)Nc3ccc(OC)cc3)ccc21,-8%,0%,.,.,.,-1%,-6%,.
COC(=O)c1sccc1S(=O)(=O)N(CC(=O)NCc1ccccc1)c1ccccc1,.,.,.,-2.1%,-21%[46.1 µM],.,14%,?
CC(=O)NC(=S)Nc1ccc(S(=O)(=O)Nc2ncccn2)cc1,-13%,0%,.,.,.,-2%,3%,.
CCOc1ccc(N2CCCn3c2nc2c3c(=O)n(CCc3ccccc3)c(=O)n2C)cc1,.,-2%,.,-2.6%,.,-13%,.,?
CCOC(=O)c1c(C)nn(Cc2ccccc2)c1N,11%,2%,-6%[46.1 µM],0.0%,-16%,-20%,-11%,1%
Cc1cccc(NC(=S)NC2CC3CCCC(C2)N3Cc2cccs2)c1C (centres undefined),6%,-1%,?,0.3%,?,-9%,.,-5%
COC(=O)c1ccccc1NC(=O)C1CCN(S(C)(=O)=O)CC1,4%,2%,15%,2.0%,-14%,6%,12%,-7%
CCOc1ccc(C(C)=O)cc1CN1C(=O)NC2(CCCCCCC2)C1=O,-13%,0%,?,.,-27%,-7%,-23%,.
CCOc1ccc(N(CC(=O)NCCSCc2ccco2)S(=O)(=O)c2ccc(F)cc2)cc1,-9%,-4%,-10%,.,?,13%,2%,.
Cc1nc(SCC(=O)N2CCCC2=O)nc(C)c1C,-2%,6%,20%,.,?,.,23%,.
NC(=S)N/N=C/c1cn(CCC(=O)O)nc1-c1cccc(Br)c1,1%,1%,17%[46.1 µM],.,9%,2%,-9%,.
CC1(C)Cc2c(sc(NC(=O)c3ccc(S(=O)(=O)N4CCCCCC4)cc3)c2C(N)=O)C(C)(C)N1,22%,0%,?,.,?,11%,0%,.
COc1ccc(-n2c(C)cc(/C=N/Nc3nnc(C)n3N)c2C)cc1,-2%,-35%,?,-3.0%,-17%,-11%,-10%,9%
O=C(NCCCN1CCN(CCCNC(=O)c2cc([N+](=O)[O-])ccc2Cl)CC1)c1cc([N+](=O)[O-])ccc1Cl,5%,5%,?,?,-5%,3%,-8%,-17%
CCN(CC(=O)Nc1c(F)cccc1F)C(=O)CSc1ccccc1,6%,4%,1%[46.1 µM],.,3%,.,-12%,.
CC(C(=O)Nc1ccccc1-c1ccccc1)N(C)Cc1nc2ccccc2c(=O)[nH]1 (centres undefined),-8%,0%,-19%[46.1 µM],.,?,.,?,.
Cc1ccc(F)c(NC(=O)CCc2ccccc2)c1,1%,1%,14%&14%[46.1 µM],2.2%,?,-8%,45%[activator],3%
Clc1ccccc1CN1CCN(c2ccccc2Cl)CC1,-17%,-8%,-27%,-2.5%,-10%,-5%,.,8%
COc1cc(CNc2nc3c(C)cc(C)cc3s2)ccc1O,-25%,-5%,?,.,?,3%,-19%,.

# Entries of single compounds as entered above. Order of screens: RE007 growth inh | SARS PLpro yeast | Marburg entry inh | Cruzain inh Det | Lassa entry inh | NS1 inh | StopGo reporter | Cruzain noTriton
# `O=C(c1ccc(S(=O)(=O)N2CCCC2)cc1)N(c1ccc(F)cc1)C1C=CS(=O)(=O)C1` (centres undefined) is entered as -3% | -5% | -1% | . | ? | -5% | -11% | .
# `O=C(c1ccc(CN2CCOCC2)cc1)N1CCN(c2ccccc2F)CC1` is entered as 1% | 0% | 0% | 4.0% | 18% | 0% | 0% | -4%
# `COc1ccc(-n2c(C)cc(/C=N/Nc3nnc(C)n3N)c2C)cc1` is entered as -2% | -35% | ? | -3.0% | -17% | -11% | -10% | 9%
# `O=[N+]([O-])c1ccccc1N=Nc1c(O)[nH]c2ccc(F)cc12` is entered as 3% | . | ? | . | ? | . | 19% | .

# Remaining list, next part.
SMILES,RE007 growth inh,SARS PLpro yeast,Marburg entry inh,Cruzain inh Det,Lassa entry inh,NS1 inh,StopGo reporter,Cruzain noTriton
O=c1cc(CCl)nc2scc(-c3ccccc3)n12,7%,0%,.,.,.,4%,-27%,.
CCOC(=O)N1CCN(Cc2cc(Cl)c3cccnc3c2O)CC1,?,-6%,?,.,?,-50%,-24%,.
COc1ccc(CCNC(=O)CSC2=Nc3ccccc3C3=NC(CCC(=O)NCc4ccccc4)C(=O)N23)cc1OC (centres undefined),.,.,.,0.2%,17%[46.1 µM],.,-18%,3%
C#CCOCCOCCOCCNc1nc(N2CCN(C(=O)[C@H](CCCCN)n3cc([C@@H](N)C(C)CC)nn3)CC2)nc(N2CCN(C(=O)[C@H](CCCCN)n3cc([C@@H](N)CC(C)C)nn3)CC2)n1 (some centres undefined),-8%,-2%,.,.,.,1%,-14%,.
CC(=O)Oc1ccccc1C(=O)Nc1ccccc1C(=O)N1CCCC1,8%,-4%,.,.,.,7%,5%,.
